Source: PubChem (Johns Hopkins Ion Channel Center)
KCNQ2 inh: KCNQ2 potassium channel inhibitors, primary screen, cell-based, CHO-K1, FluxOR thallium flux, B-score (AID 2156) | 20 min; hits give low values; only compounds with negative scores are shown here; some inactives read as strong as hits | hit rate 1.1% among 310,000 | O88943 | B-score at 10 µM;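 active means fluorescence ratio B-score at most minus 3 library SDs, with starting brightness B-score within 2 library SDs, cut at about -5.5 in these data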
Target sequence (O88943 whole entry, looked up): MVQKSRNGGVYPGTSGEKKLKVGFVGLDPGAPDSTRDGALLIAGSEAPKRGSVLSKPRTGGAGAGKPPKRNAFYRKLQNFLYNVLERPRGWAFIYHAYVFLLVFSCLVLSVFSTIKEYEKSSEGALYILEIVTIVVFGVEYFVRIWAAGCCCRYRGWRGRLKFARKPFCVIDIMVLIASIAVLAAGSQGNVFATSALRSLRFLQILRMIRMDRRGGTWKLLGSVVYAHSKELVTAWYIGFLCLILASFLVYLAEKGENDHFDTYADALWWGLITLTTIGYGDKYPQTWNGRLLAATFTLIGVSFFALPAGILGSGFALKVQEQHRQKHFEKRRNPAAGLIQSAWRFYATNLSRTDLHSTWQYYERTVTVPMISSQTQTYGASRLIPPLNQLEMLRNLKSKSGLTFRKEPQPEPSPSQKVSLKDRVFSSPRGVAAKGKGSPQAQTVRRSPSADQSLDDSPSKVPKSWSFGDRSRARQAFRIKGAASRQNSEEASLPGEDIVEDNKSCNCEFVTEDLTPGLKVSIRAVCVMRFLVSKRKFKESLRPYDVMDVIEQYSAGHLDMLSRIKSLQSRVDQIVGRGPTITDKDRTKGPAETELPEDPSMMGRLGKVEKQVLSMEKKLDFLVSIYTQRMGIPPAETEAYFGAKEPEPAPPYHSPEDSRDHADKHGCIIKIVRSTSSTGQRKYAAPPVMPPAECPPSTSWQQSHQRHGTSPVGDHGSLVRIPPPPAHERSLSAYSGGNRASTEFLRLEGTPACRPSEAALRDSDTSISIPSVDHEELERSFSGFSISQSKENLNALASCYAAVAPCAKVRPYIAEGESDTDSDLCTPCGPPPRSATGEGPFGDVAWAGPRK
KCNQ2 inh baseline: further read-out of KCNQ2 inh, marked with its call; B-score; measured here: initial fluorescence intensity artifact check;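 brightness before thallium and not channel activity; 0 = typical well and far values either way flag optical interference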
Numbers without * were called inactive; i = inactive; & = joins results of further samples. A portion of the library; count on the stated rates, not on these rows.

SMILES | KCNQ2 inh | KCNQ2 inh baseline
COCCNC(=O)c1onc(CSc2ccccc2)c1C(=O)O | i | 1.8
COc1ccc2c3c1OC1CC(O)C=CC31CCN(C)C2 (stereo not drawn) | i | 2.2&3.2
Cc1cccc(NC2=C(C#N)C(=O)NC3(CCCC3)S2)c1 | i | -0.79
CC1(C)CC2(CCO1)OC(=O)CC2C(=O)Nc1c(Cl)cccc1Cl (stereo not drawn) | i | 0.46
CC(C)OCCCNS(=O)(=O)c1ccc2c(c1)OCCO2 | i | 0.66
Cc1cccc(N(C)C(=O)c2coc(=O)c3ccccc23)c1 | i | 0.91
Cc1ccc(S(=O)(=O)C2(C(=O)Nc3ccc(C(C)C)cc3)CC2)cc1 | i | -1.1
CSc1ccc(CN(C)C(=O)CN2C(=O)NC3(CCCC3)C2=O)cc1 | i | 2.4
C=CCN1C(=NC(=O)CCC)SC2CS(=O)(=O)CC21 (stereo not drawn) | i | 1.4
Fc1ccc(-c2cc(C(F)(F)F)nc(-n3cc(Cl)cn3)n2)cc1 | i | -1.6
CC(C)[C@H](NC(=O)[C@@H]1Cc2ccccc2CN1)C(=O)Nc1ccc2c(c1)OCCO2 | i | 0.24
NC(=S)Nc1c(Cl)cccc1Cl | i | -0.85
Cc1cnc(CNC(=O)C2CCC(=O)N(CCc3cccc(F)c3)C2)[nH]1 (stereo not drawn) | i | 0.69
Fc1ccc(-c2ccnc3nc(N4CCOCC4)nn23)cc1 | i | 0.06
CC(NC(=O)COc1cc(=O)n(C)c2ccccc12)c1ccc2c(c1)OCCO2 (stereo not drawn) | i | -0.07
Cc1ccc(S(=O)(=O)N2CCCC(C)C2)cc1 (stereo not drawn) | i | 1.2
O=C(NCCc1cccnc1)c1cc(COc2ccc(F)cc2F)on1 | i | 2.4
CC(C)(CC(=O)O)CC(=O)NCc1c(Cl)cccc1Sc1ccc(Cl)cc1 | i | 1.4
CCOC(=O)c1sc(NC(=O)CSc2nc3c(cc2C#N)CCCCCC3)c(C#N)c1C | i | -2.1
Cc1csc(NC(=O)CSc2nnc(-c3ccoc3C)n2C(C)c2ccccc2)n1 (stereo not drawn) | i | 0.81
COCCC(=O)N(Cc1ccc2c(c1)OCO2)C(C(=O)NC1CCCCC1)c1ccncc1 (stereo not drawn) | i | 0.27
Cc1ccc(C(C[N+](=O)[O-])c2c(C)cc3ccccn23)cc1 (stereo not drawn) | i | -0.01
Nn1c(SCC(=O)Nc2nnc(-c3ccccc3)o2)nnc1C1CC1 | i | 0.89
CC(=O)N(C)c1ccc(NC(=O)CCN2C(=O)c3ccccc3C2=O)cc1 | i | -0.47

Complete entries, quoted from the list.
Record of `COCCNC(=O)c1onc(CSc2ccccc2)c1C(=O)O` → KCNQ2 inh = i; KCNQ2 inh baseline = 1.8
Record of `CC(C)[C@H](NC(=O)[C@@H]1Cc2ccccc2CN1)C(=O)Nc1ccc2c(c1)OCCO2` → KCNQ2 inh = i; KCNQ2 inh baseline = 0.24

Later entries.
SMILES | KCNQ2 inh | KCNQ2 inh baseline
CCOC(=O)N1CCC(NC(=O)c2cc3c(-c4ccc(OC)c(OC)c4)nn(C)c3s2)CC1 | i | -1.9
CC(C)CCNC(=O)c1onc(CSc2nc3ccccc3[nH]2)c1C(=O)NCCC(C)C | i | 0.2
O=C(Nc1ccc2c(c1)OCO2)c1ccc(NC2CC2)c([N+](=O)[O-])c1 | i | -0.06
CCOC(=O)c1ccc(NC2Nc3cc(C)nn3S2)cc1 (stereo not drawn) | i | 1.2
CC1(C)Cc2ccccc2C(=NC(Cc2c[nH]c3ccccc23)C(=O)O)N1 (stereo not drawn) | i | 1.6
COCCNC(=S)N/N=C/c1c2ccccc2cc2ccccc12 | i | 4.1
Cc1ccccc1N(CC(=O)NC1CCCC1)C(=O)c1csnn1 | i | -0.64
CC1(C)Cc2c(cnn2-c2ccccc2)-c2c1c1ccccc1n2CC(O)CBr (stereo not drawn) | i | -2
COCCn1c(=NC(=O)c2cccs2)sc2cc(NC(C)=O)ccc21 | i | -0.61
CCOc1ccc(S(=O)(=O)Nc2nccs2)cc1 | i | 2
COc1ccc(NC(=O)N(CCc2ccccc2)Cc2cc3c(C)cc(C)cc3[nH]c2=O)cc1 | i | 1.4
Cc1ccc(NC(=O)C(=O)NCC2OCCc3ccccc32)cc1 (stereo not drawn) | i | 0.2
CCc1ccc2[nH]c(=O)c(CN(CCCN3CCOCC3)C(=O)Nc3ccc(Cl)cc3)cc2c1 | i | -0.67
Cc1ccc(C)c(-n2nnnc2SCC(=O)Nc2cccc(-c3nnc4n3CCCCC4)c2)c1 | i | 0.13
CC(C)CCNC(=O)NC(=O)COC(=O)C1=COCCO1 | i | -0.53
O=C(NC(=S)Nc1ccc2c(c1)OCCO2)c1cccc2ccccc12 | i | 1.8
Cc1ccc(-c2cc(C(=O)NCc3ccc4c(c3)OCO4)[nH]n2)c(O)c1C | i | 1.6
CC(Oc1ccc(Cl)cc1)c1ccnn1S(=O)(=O)c1ccc(Cl)cc1 (stereo not drawn) | i | 1.6
CCN(c1ccccc1)S(=O)(=O)c1ccc(NCC2COc3ccccc3O2)nc1 (stereo not drawn) | i | 1.4
COc1ccc(OC)c(NC(=O)c2cc(-c3cc(C)cc(C)c3O)n[nH]2)c1 | i | 0.68
O=C(O)C1CN(C(=O)c2ccccc2)c2cc(Cl)ccc2O1 (stereo not drawn) | i | -0.98
COc1ccccc1-c1cc(C(=O)O)c2c(=O)n(C)c(=O)n(Cc3ccccc3)c2n1 | i | -1.7
CCc1noc(C)c1C(=O)N(CC)c1nc2c(C)cccc2s1 | i | -1.2
O=C(CCS(=O)(=O)Cc1ccc(Cl)cc1)NCCCN1CCOCC1 | i | 0.62
COc1ccc(N2CCn3c2nc2c3c(=O)n(CCCc3ccccc3)c(=O)n2C)c(OC)c1 | i | -0.53
Clc1ccc(Cc2noc(Cc3ccccc3)n2)cc1Cl | i | 0.01
CCOC(=O)C1(Cc2ccccc2Cl)CCN(S(C)(=O)=O)CC1 | i | -0.32
Cc1cc(C)n(-c2nc(C)nc(NCc3ccccc3)n2)n1 | i | 0.01
C/C(=N/NC(=O)c1ccc(O)cc1)c1cccc([N+](=O)[O-])c1 | i | 0.38
COc1cc2cc(CN(CCCN3CCOCC3)Cc3nnnn3Cc3ccccc3)c(=O)[nH]c2cc1OC | i | -2
CC1(C)Cc2nc3sc(C(=O)NCCCO)c(N)c3cc2CS1 | i | -0.05
O=C(NC12CC3CC(CC(C3)C1)C2)N1CCC(O)(c2ccc3c(c2)OCO3)CC1 | i | 0.84
COC(=O)c1ccccc1S(=O)(=O)N1CCC(c2nc3ccccc3o2)CC1 | i | 0.43
Cc1ccc(NS(=O)(=O)c2cccc(C(=O)NCCCn3ccnc3)c2)cc1 | i | 3.9
C=CCNC(=O)COc1cc(C)cc(C)c1C | i | -0.53
COC(=O)C1(C)NC(c2ccc(O)cc2)C2C(=O)N(c3ccc4c(c3)OCCO4)C(=O)C21 (stereo not drawn) | i | 1.2
CC(C)(C)C(=O)NC(CC(=O)O)c1ccccc1 (stereo not drawn) | i | -0.85
Cc1ccc(S(=O)(=O)Nc2cc(C)c(O)c(Sc3n[nH]c(C)n3)c2)cc1 | i | -1.2
O=C(CCl)NNC(=O)c1c(O)c2ccccc2[nH]c1=O | i | -0.71
Cc1cc(C)c(/C=C(\C#N)S(=O)(=O)c2ccccc2)[nH]1 | i | -0.12
O=c1c2nccnc2[nH]c(=S)n1Cc1ccccc1 | i | 0.15
COc1nccnc1NS(=O)(=O)c1ccc(NS(=O)(=O)c2ccc(NC(C)=O)cc2)cc1 | i | -1.1
CCOc1ccccc1CNS(=O)(=O)c1cc(-c2cc(C)no2)ccc1C | i | -0.5
c1ccc(CCc2nc(-c3ccccn3)no2)cc1 | i | -0.54
Cc1ccc(-c2cc(C(=O)O)c3sc(N4CCCCC4)nc3n2)cc1 | i | -1.3
Cc1ccc(S(=O)(=O)Cn2nnnc2C(c2ccccc2)N2CCN(c3ccccc3)CC2)cc1 (stereo not drawn) | i | 1.1
CCOC(=O)N1CCN(C(=O)C2CC(c3ccc(F)cc3)=NO2)CC1 (stereo not drawn) | i | 0.28
COc1ccc(N2CCN(CCNC(=O)Nc3ccc(C)cc3Cl)CC2)cc1 | i | 1.8

Arranged by heavy-atom count (low to high): part of the list above
SMILES | KCNQ2 inh | KCNQ2 inh baseline
c1ccc(CCc2nc(-c3ccccn3)no2)cc1 | i | -0.54
CCOc1ccccc1CNS(=O)(=O)c1cc(-c2cc(C)no2)ccc1C | i | -0.5
COc1nccnc1NS(=O)(=O)c1ccc(NS(=O)(=O)c2ccc(NC(C)=O)cc2)cc1 | i | -1.1

More records:
SMILES | KCNQ2 inh | KCNQ2 inh baseline
NC(=O)Cc1ccc2c(c1)[nH]c1ccccc12 | i | 1.8
CCn1c(SCC(=O)Nc2ccccc2C(=O)OC)nnc1-c1cccc(C)c1 | i | 0.33
COCCNc1nc2ccccc2nc1NS(=O)(=O)c1ccc(C)cc1C | i | 3
CCOC(=O)N1CCN(C(=O)CN(Cc2ccc(Cl)cc2)S(C)(=O)=O)CC1 | i | -1.8
COc1ccccc1NC(=O)C(C)Nc1ccc(C)c(Cl)c1 (stereo not drawn) | i | 0.96
CC(C)(C)OC(=O)NCCCC1=CC2=CC(=O)C(C)(OC(=O)C3CCCC3)C(=O)C2=CO1 (stereo not drawn) | i | 2.9
O=C(O)CC(NC(=O)C1c2ccccc2Oc2ccccc21)c1ccc(Cl)cc1 (stereo not drawn) | i | -1.7
Cc1nn(-c2nc(-c3ccco3)cc(C(F)(F)F)n2)c(C)c1Cl | i | -0.75
CC(=O)Nc1cccc(C(=O)OCC(=O)c2ccc3c(c2)OCO3)c1 | i | 3
CS(=O)(=O)Nc1ccc(C(=O)Nc2ccccc2Cl)cc1 | i | -0.12
CC(C)(CO)Nc1ccc([N+](=O)[O-])cc1[N+](=O)[O-] | i | 0.74
CC(C)Oc1ccc(C(=O)NC(=S)Nc2ccc(Cl)c(C(=O)O)c2)cc1 | i | 0.35

Fetched by structure from above:
SMILES | KCNQ2 inh | KCNQ2 inh baseline
CC(=O)Nc1cccc(C(=O)OCC(=O)c2ccc3c(c2)OCO3)c1 | i | 3
NC(=O)Cc1ccc2c(c1)[nH]c1ccccc12 | i | 1.8

Next part
SMILES | KCNQ2 inh | KCNQ2 inh baseline
CCN1CCN(CCCNC(=O)CCc2nc(-c3ccc(OC)cc3)no2)CC1 | i | -0.48
NC(=S)C1COc2ccccc2O1 (stereo not drawn) | i | 0.1
COc1ccc2c(c1)N(C)/C(=C/c1cccc[n+]1C)S2 | i | 4
CCS(=O)(=O)n1nc(-c2ccc(Cl)cc2)nc1SCc1ccccc1 | i | -0.9
Cc1ccc(Cl)cc1NC(=O)Cn1cccc1 | i | -0.97
Cc1ccc(Nc2nnc(SCC(=O)c3ccc(Br)s3)s2)c(C)c1 | i | -1.3
CCN(CC)C(=O)c1cncc(C(=O)N(CC)CC)c1-c1ccccc1 | i | 1.4
COc1ccc(CN(C(=O)c2snc(C(N)=O)c2N)C(C(=O)NC2CCCC2)c2ccc(OC)c(OC)c2)cc1 (stereo not drawn) | i | -1.8
O/N=C1/C2C3CC4C5C3C1C5C1(OCCO1)C42 (stereo not drawn) | i | 1.1
COc1ccc(S(=O)(=O)n2nc(C)cc2C)c(C)c1C | i | -0.33
CCOc1ccc(CC(=O)N2CCN=C2SCc2ccc([N+](=O)[O-])cc2)cc1 | i | -0.03
COc1ccc(-c2nc(-c3ccc(Br)o3)no2)cc1 | i | 1.6
O=c1[nH]cnc2scc(-c3ccc(-c4ccccc4)cc3)c12 | i | 0.39
Cc1ccc(C)c(C(C)NC(=S)NCc2ccc(F)cc2)c1 (stereo not drawn) | i | 0.99
O=C(NCc1ccco1)Nc1ccc(Br)cc1 | i | 0.67
COc1cc(Cl)c(C)cc1NC(=O)COC(=O)C1=COCCO1 | i | 3.5
Cc1ccc(Cl)cc1NC(C#N)c1ccccc1 (stereo not drawn) | i | 0.29
COc1cccc(C(=S)N2CCCC2)c1OC | i | -1.1
CCCn1c(=O)c2ccccc2n2c(SCCOc3ccccc3)nnc12 | i | 1
CC(C)c1nnc(NC(=O)CCS(=O)(=O)c2nc(-c3cccs3)cc(C(F)(F)F)n2)s1 | i | 1.2
O=C(Cn1c(=O)cnc2ccccc21)N1CCCc2ccccc21 | i | -0.4
CCOc1ccc(N2C(=O)CN(C)C2=S)cc1 | i | 0.77
CN(C)/C=C/C(=O)c1cnc2n(c1=O)CCS2 | i | -1.3
CCc1nnc(NC(=O)c2c(-c3ccccc3)noc2C)s1 | i | 1.2

Some values from the list:
Result of `CCCn1c(=O)c2ccccc2n2c(SCCOc3ccccc3)nnc12` in KCNQ2 inh baseline: 1
Result of `O=C(Cn1c(=O)cnc2ccccc21)N1CCCc2ccccc21` in KCNQ2 inh baseline: -0.4
Result of `O=C(NCc1ccco1)Nc1ccc(Br)cc1` in KCNQ2 inh baseline: 0.67

(listing goes on)
SMILES | KCNQ2 inh | KCNQ2 inh baseline
Cc1ccccc1-c1nc(-c2ccc(Br)o2)no1 | i | 1.5
Cc1ccc(NC(=O)C(=Cc2ccc(C(=O)O)cc2)C(=O)Nc2ccc(C)cc2C)c(C)c1 | i | 0.23
COc1cc(C)c(C(C)C)cc1S(=O)(=O)NC1CC(C)(C)NC(C)(C)C1 | i | -1.3
Cc1ccc(S(=O)(=O)N(CC(O)CN2CCCC2)c2ccccc2)cc1 (stereo not drawn) | i | 2.9
O=C(CN1CCc2ccccc2C1)Nc1ccc(F)cc1 | i | -0.1
